Source: PubChem BioAssay
Yeast UUG start: alters start codon recognition fidelity in yeast | S. cerevisiae UUG-firefly luciferase reporter, luminescence/redox ratio | activity score, % at 18.7 µM | 350,000 compounds, 0.13% hits | AID 602363;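 active = replicate mean at a twofold rise or more, about +100% in these data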;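 note: firefly luciferase made from a UUG start codon reports start codon fidelity; reporter light over untreated wells divided by growth signal over untreated wells; some hits fall short of that in this replicate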
Env fusion inh: inhibitors of HIV Env-mediated cell fusion; HeLa-JRFL Env/CEM21 cell fusion, luciferase; inhibition, % at 12.3 µM; 360,000 compounds, 1.1% hits; AID 651610;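 active = mean replicate inhibition score of at least 50 and every replicate individually at or above 50; inconclusive = only one of the two criteria met; inactive = mean below 50 and not all replicates reaching 50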;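 note: 0% = plate neutral controls and 100% = maraviroc near 300 nM; one replicate is shown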
MT1-MMP act inh: inhibitors of human MT1-MMP activation. 360,000 compounds, 0.061% hits. HT1080 RFP-PRO-GFP cells, GFP/RFP ratio fluorescence, overnight; percent of plate control window, DMSO zero. GFP/RFP ratio change, % at 20 µM;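 active = GFP/RFP ratio change of at least 30% with cell ATP level not reduced by more than half and red fluorescence within 50% of control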; note: strong numbers were not always called active
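Test system: HT1080 cells expressing an RFP-PRO-GFP fluorescent reporter construct / Compound dosing: single-point 20 µM compound, 1% DMSO / Schedule: cells overnight before dosing, compound overnight, 37 °C, 5% CO2 / Evaluation: GFP/RFP fluorescence ratio / Control set: DMSO and RFP-L50D-GFP cell wells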
eIF4H inh: inhibitors of RNA binding by human eIF4H. Q15056. eIF4H fluorescence polarization binding assay. inhibition, % at 35 µM. 290,000 compounds, 0.94% hits. AID 2012;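 active = 50% or more with normal probe brightness, or confirmed in later tests; inconclusive = above 50% with abnormal brightness, or retests that disagree; inactive = below 50% or failed in later tests; about a fifth of its hits are not listed in these tables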;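 note: calls also rest on retests at 20 µM and on dose response follow-up; 0% = protein and probe with vehicle and 100% = probe without protein; strong numbers were not always called active; many hits fall short of the cut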
CSC inhib: cancer stem cell inhibition. inhibition, % at 7.5 µM. AID 2717. 300,000 compounds, 1.1% hits. cancer stem cell-like cells viability, luminescence;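 active = mean at 75% or more and at least half the replicates too; inconclusive = mean and replicates disagree; tested in HMLE shEcad cells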;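 note: 0% = median of negative and 100% = median of positive control wells; the first replicate is given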
PABP polyA inh: blocks human PABP binding to poly(A) RNA; fluorescence polarization; P11940; 290,000 compounds, 1% hits; inhibition, % at 35 µM;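 active = 50% or more with normal probe brightness, or confirmed in later tests; inconclusive = above 50% with abnormal brightness, or retests that disagree; inactive = below 50% or failed in later tests; about a fifth of its hits are not listed in these tables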;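 note: calls also rest on retests at 20 µM and on dose response follow-up; controls were probe without protein and protein plus probe with vehicle; some compounds called inactive have numbers as strong as hits; many hits fall short of the cut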
Target sequence (P11940 whole entry, looked up): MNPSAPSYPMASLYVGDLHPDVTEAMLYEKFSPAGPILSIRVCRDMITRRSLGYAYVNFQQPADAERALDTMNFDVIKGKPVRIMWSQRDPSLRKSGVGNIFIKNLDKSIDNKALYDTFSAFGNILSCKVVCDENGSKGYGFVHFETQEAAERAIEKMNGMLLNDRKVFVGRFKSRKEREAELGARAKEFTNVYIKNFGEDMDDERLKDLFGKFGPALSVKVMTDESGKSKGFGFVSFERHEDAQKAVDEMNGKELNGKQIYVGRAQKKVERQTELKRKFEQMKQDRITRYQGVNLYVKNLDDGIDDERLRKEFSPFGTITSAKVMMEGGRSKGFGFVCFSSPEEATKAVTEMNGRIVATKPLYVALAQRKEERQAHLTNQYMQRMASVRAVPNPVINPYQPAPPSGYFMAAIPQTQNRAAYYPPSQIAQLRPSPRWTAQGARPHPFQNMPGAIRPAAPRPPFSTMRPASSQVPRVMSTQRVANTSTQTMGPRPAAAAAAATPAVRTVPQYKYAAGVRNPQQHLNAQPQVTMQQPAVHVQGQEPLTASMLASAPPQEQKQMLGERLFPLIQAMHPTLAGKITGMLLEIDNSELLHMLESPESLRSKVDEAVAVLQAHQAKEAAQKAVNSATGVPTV
Rce1 inh: blocks yeast Ras-converting enzyme; calls only; Q03530; AID 2563; 290,000 compounds, 0.27% hits; yeast membranes, quenched prenylated peptide cleavage fluorescence;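 active = fall in fluorescence gain of 50% or more versus controls, with final raw signal at or below 3038400; inconclusive = same 50% fall but final raw signal above 3038400; inactive = fall in fluorescence gain under 50%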;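 note: plate controls were neutral control wells for no effect and wells lacking membranes for full effect; tested at 10 µM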
MT1-MMP act inh RFP: further read-out of MT1-MMP act inh, marked with its call; RFP signal change, %; measured here: RFP expression control read;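 0 = vehicle wells; hits needed this value within 50% of zero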
The depositor's hits bear a star; i = inactive; ? = inconclusive; nt = no result given; & = joins results of further samples; [ ] = remark or other dose. These rows are one share of the data; the hit share may differ from the screen's.

SMILES	Yeast UUG start	Env fusion inh	MT1-MMP act inh	MT1-MMP act inh RFP	eIF4H inh	CSC inhib	PABP polyA inh	Rce1 inh
CN(c1ccc(OCCOc2ccccc2Cl)cc1)S(=O)(=O)c1ccccc1	-16	0	-3	-5	nt	22	nt	nt
CCOC(=O)COc1ccc2nsnc2c1Cl	nt	nt	1	4	-8	-4	-8	nt
CCOc1cc(S(=O)(=O)Nc2cc(C)cc(C)c2)ccc1Cl	nt	15	1	-12	-2	-2	-11	i
CCc1ccc(CN/C=C/C(=O)c2ccc(Br)cc2)cc1	nt	nt	-2	0	-3	2	5	i
COC(=O)c1cc2c(C)nn(-c3ccccc3)c2s1	0	nt	-2	-3	-5	13	-3	i
Cc1ccccc1N1CCN(CC(=O)NCc2ccc(Cl)cc2)CC1	2	-5	0	-4	-2	-1	-1	i
Cc1ccc(-n2nc3c(N4CCC(C(=O)N5CCC(C(N)=O)CC5)CC4)nnc(C)c3c2C)cc1	-9	-3	-26	4	34	14	-1	i
COc1ccc(S(=O)(=O)Nc2ccc(O)c(Sc3ncn[nH]3)c2)cc1	-6	nt	5	3	-6	8	-18	i
C/C(=N/OC(=O)C1CC12CCC2)c1ccc(Br)cc1 (configuration not stated)	nt	2	0	4	-9	-13	-2	i
CC(NC(=O)c1cn(C(C)c2ccccc2F)nn1)c1ccncc1 (configuration not stated)	nt	2	1	3	-8	-12	0	i
COc1ccc2cc(C#N)c(Cl)nc2c1	nt	12	2	-1	5	-1	1	i
Cc1ccc(CSCCNC(=O)c2ccc(N(C)S(=O)(=O)c3ccccc3)cc2)cc1	nt	nt	1	-9	-8	29	-5	i
O=C(O)c1cccc(Cn2cccn2)c1	-16	-2	3	0	-1	-9	3	i
Cc1ccc2nc(SCC(=O)Nc3ccc(F)c([N+](=O)[O-])c3)[nH]c2c1	nt	24	4	3	1	2	-7	i
NNC(=O)c1ccc(COc2cccc3cccnc23)cc1	-33	27	-6	1	-11	2	-11	i
Cc1ccc(CN(c2ccc(C(=O)Nc3cccnc3)cc2)S(C)(=O)=O)cc1	2	18	-6	-6	8	-2	0	i
CSCc1ccc(C(=O)OCC(=O)NC2CCCC2)o1	-4	12	-4	4	nt	nt	nt	nt
COc1cc(CCC(=O)OCC(=O)Nc2cc(S(=O)(=O)N3CCOCC3)ccc2Cl)cc(OC)c1OC	0	9	0	-3	nt	nt	nt	nt
CC12CCC(C(=O)N3CCOCC3)([C@H](Br)C1=O)C2(C)C (some centres not stated)	-15	-3	-5	-4	13	-8	-1	i
O=C(c1cc(Br)ccc1Cl)N1CCN(c2ccc(N3CCOCC3)nn2)CC1	-23	-16	6	-5	nt	20	nt	i
CCOc1ccc(C2c3cc(OC)c(OC)cc3CC(=O)N2c2ccccc2)cc1 (configuration not stated)	23	7	7	5	4	-5	10	i
Nc1nc2ccc(O)cc2s1	-22	-22	9	0	-7	-1	-9	i
Cc1cc(C)nc(SCC(=O)c2c(N)n(C)c(=O)n(C)c2=O)n1	20	-38	3	2	-2	-9	1	i
Cc1cccc(N2CCN(S(=O)(=O)c3ccc4c(c3)CC(=O)N4C)CC2)c1C	-1	-4	-2	-2	-16	3	-12	i
COc1cc(OC)cc(-c2c(C#Cc3ccsc3)c3cc(Br)ccc3n2C)c1	-16	20	0	0	nt	33	nt	nt
COc1ccc(/C(O)=C/C(=O)C(=O)Nc2c(C)n(C)n(-c3ccccc3)c2=O)cc1	0	-13	0	-1	-7	-13	-10	i
CC1=Nc2ccccc2/C1=C\c1nc(-c2ccc(C(F)(F)F)cc2)oc1O	-13	nt	-39	4	?	-7	?	i
CC(C)CN(C(=O)COC(=O)/C=C/c1cccs1)c1c(N)n(Cc2ccccc2)c(=O)[nH]c1=O	nt	-54	-2	-2	nt	-6	nt	i
Fc1ccc(CNc2ncccn2)cc1	8	-5	2	4	19	1	3	nt
COC(=O)c1ccc(-c2ccc(/C=N/NC(=O)Cc3nnc(N)s3)o2)cc1	nt	-41	-2	-5	23	-8	5	i
c1ccc(CNc2ncnc3c2cnn3Cc2ccccc2)cc1	8	nt	-3	-11	-3	48	-4	i
O=C(NCCc1ccc(F)cc1)c1ccc(NS(=O)(=O)c2ccc3[nH]c(=O)[nH]c3c2)cc1	nt	-5	1	2	nt	-2	nt	nt
Cc1ccc(NC(=S)NNC(=O)c2ccc(N3CCOCC3)c([N+](=O)[O-])c2)cc1C	nt	-5	3	0	8	nt	-8	i
N#C/C(=C\c1cccnc1)c1ccc([N+](=O)[O-])cc1	-12	6	1	-3	-1	20	9	nt
COc1ccc(OCC(=O)N(C)CC2COc3ccccc3O2)cc1 (configuration not stated)	12	5	0	2	nt	-6	nt	nt
O=C(CSc1cccc[n+]1[O-])Nc1ccc(C(F)(F)F)cc1[N+](=O)[O-]	nt	-13	-2	-3	4	-17	-5	i
CCCCCCCNC(=O)C1(CC2CC(c3cccc(Br)c3)=NO2)CCN(C(=O)C2CCCC2)CC1 (configuration not stated)	-12	1	0	-7	nt	5	nt	i
Oc1ccc(/C=N/N2CCN(C3c4ccccc4-c4ccccc43)CC2)c(O)c1	nt	1	-1	1	0	-3	5	i
CN1CCSc2ccc(C(=O)Nc3cc(F)ccc3F)cc21	nt	-175	-5	-2	-18	nt	-5	i
O=C(NNC(=O)c1cccs1)c1ccc(Cl)c([N+](=O)[O-])c1	nt	11	3	2	-15	-18	-9	i
COc1cccc2cc(C(=O)N3CCCCCCC3)c(=O)oc12	-7	-56	0	0	0	1	-4	i
CCSc1nc2c(c(=O)[nH]1)C(c1ccc(C)cc1)C1=C(CCCC1=O)N2 (configuration not stated)	nt	-5	-2	1	-1	-4	1	i
O=C(O)C1C2C=CC(C2)C1C(=O)Nc1cccc(C(=O)N2CCCCC2)c1 (configuration not stated)	-11	nt	2	1	5	-18	1	i
CCCCS(=O)(=O)Nc1ccc2cn[nH]c2c1	nt	-8	3	6	-9	-11	-9	i
CCOc1cc(S(=O)(=O)NCCCn2ccnc2)ccc1Cl	-18	13	0	-7	0	0	12	i
COc1ccccc1CNCc1ccc(OC)c(OC)c1OC	-15	nt	-3	3	0	-8	4	i
Cc1ccc(C)c2nc3sc(C(=O)O)cc3cc12	nt	15	0	-1	-6	-6	4	i
O=CN1CCN(C(=O)c2ccc([N+](=O)[O-])cc2)CC1	nt	-21	2	1	11	0	-1	i
Cc1ccccc1C(=O)Nc1cccc(-c2ccc(N3CCOCC3)nn2)c1	-10	-23	2	1	nt	nt	nt	i
CCOC(=O)c1cccnc1SCC(=O)N(CC)c1cccc(C)c1	24	15	-1	0	4	-4	5	i

Brought forward from above: 5 compounds; new compounds follow.
SMILES	Yeast UUG start	Env fusion inh	MT1-MMP act inh	MT1-MMP act inh RFP	eIF4H inh	CSC inhib	PABP polyA inh	Rce1 inh
COc1ccccc1CNCc1ccc(OC)c(OC)c1OC	-15	nt	-3	3	0	-8	4	i
Cc1ccc(C)c2nc3sc(C(=O)O)cc3cc12	nt	15	0	-1	-6	-6	4	i
O=CN1CCN(C(=O)c2ccc([N+](=O)[O-])cc2)CC1	nt	-21	2	1	11	0	-1	i
Cc1ccccc1C(=O)Nc1cccc(-c2ccc(N3CCOCC3)nn2)c1	-10	-23	2	1	nt	nt	nt	i
CCOC(=O)c1cccnc1SCC(=O)N(CC)c1cccc(C)c1	24	15	-1	0	4	-4	5	i
C[C@@H]1CN([C@@H](C)CO)C(=O)CCCn2nncc2CO[C@H]1CN(C)Cc1ccc(C(F)(F)F)cc1	6&1&2	11[16.7 µM]	4	3	nt	nt	nt	nt
COc1cc(CCCN2C(=S)NC[C@@H]2CCCCN)cc(OC)c1OC	-3	-18	3	9	0	10	3	i
O=C(NC1CCCCCC1)C(=O)NC1CC1	1	-24	-3	3	-4	-22	-6	i
Cn1nc(-c2ccccc2)cc1NC(=O)c1ccc(Cl)cc1	-6	-1	6	0	nt	-3	nt	nt
COc1ccc2nc(NC(=O)C34CC5CC(CC(NC(C)=O)(C5)C3)C4)sc2c1	-5	-16	8	-7	-11	-5	-5	i
CCOC(=O)c1ccc(N/C=C/C(=O)C(C)(C)C)cc1	nt	-7	4	5	5	-4	1	i
CCNC(=S)NNC(=O)CC(C)C	nt	-4	3	3	3	-14	-9	i
CCOc1ccc(S(=O)(=O)Nc2cccc(C(=O)N(C)CC(=O)Nc3cccc(OC)c3)c2)cc1	-8	nt	0	-8	nt	-8	nt	i
CC(C)(C)NC(=O)CSc1nncn1NCc1ccccc1	-37	-20	3	11	-7	7	1	i
Nc1cc(Cl)ccc1C(=O)OCC(=O)NC1CCS(=O)(=O)C1 (configuration not stated)	-12	-31	-2	2	6	-13	-2	i
Cc1ccc(SCc2c(C(=O)N/N=C/c3cccnc3)nnn2-c2nonc2N)cc1	-19	4	2	-4	-9	2	5	i
CCOc1cc(N2CCOCC2)c(OCC)cc1NC(=O)c1ccc(S(=O)(=O)N2CC(C)OC(C)C2)cc1 (configuration not stated)	0	-1	0	-3	nt	nt	nt	nt
CN(C)c1ccnc(Oc2ccc(C(C)(C)C)cc2)c1C#N	-16	nt	-6	-3	0	21	-6	nt
CC(C)NC(=O)C1CCN(C2CCN(C(=O)Cc3ccc4c(c3)OCO4)CC2)CC1	-8	3	-6	-1	-4	-9	-5	nt
CN(C(=O)COC(=O)c1ccc(Cl)cc1N)C1CCCCC1	nt	-25	3	1	4	-6	-4	i
